High-throughput results as filed in PubChem.
LT uptake inh: qHTS Assay for Anthrax Lethal Toxin Internalization; Cells, anthrax lethal toxin internalization, FRET ratio (460/530); Potency, µM (titrated, usually from 40 µM), inactives show at the top dose activity change, negative = inhibition, usual class: inhibitors; 70,000 tested, 0.67% active; AID 912, 2007; active = well fitted falling ratio curve with the 530 nm signal flat; inconclusive = other ratio curves, or a change in one channel alone; inactive = flat curves in the ratio and both channels; the % refers to the ratio; note: % is set by controls: 0 for no effect and ±100 for the full control effect; nearly all actives have a fitted effect of over 50% in size; tested in ME-180 cells; beta-lactamase reporter
Prx2 Sm inh: Schistosoma Mansoni Peroxiredoxins (Prx2); S. mansoni Prx2 activity coupled to TGR/GSH (TGR is thioredoxin glutathione reductase), NADPH fluorescence loss, qHTS; some inactives read as strong as hits; 65,000 tested, 0.07% active; Schistosoma mansoni peroxiredoxin 2 (Prx2); Potency, µM; active means full or partial inhibition curve with a strong effect at the top dose; inconclusive means weaker partial or single-point curve; inactive means no accepted curve; note: series up to 57 µM; many of its hits are not listed in these tables
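Prx2 activity was followed as the loss of NADPH fluorescence (ex 365/em 450 nm), read every 30 sec for 8 min after H2O2 start. The enzyme mix (50 nM Prx2, 25 nM TGR, GSH, NADPH; pH 7.4 phosphate buffer) was incubated with compound for 15 min at room temperature first.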
An asterisk follows results filed as active; ? = inconclusive; . = not tested or not shown; [ ] = another dose, or the depositor's remark. Potency is the fitted concentration of half-maximal effect. Not all compounds are listed (hit frequency here may not be typical).

mol | LT uptake inh | Prx2 Sm inh
N#Cc1c(NC(=O)CSc2ncnc3c2cnn3-c2ccccc2Cl)sc2c1CCCC2 | -3.6% | >57
C=C(C)[C@H]1Cc2c(ccc3c2O[C@@H]2COc4cc(OC)c(OC)cc4[C@@H]2C3=O)O1 | ? | >57
CCCCn1c(SCC(=O)Nc2nnc(C(C)C)s2)nc2c1c(=O)n(C)c(=O)n2C | -10.5% | >57
Cn1c(=O)[nH]c(=O)c2c1nc(CN1CCN(c3ccc(F)cc3)CC1)n2CCN1CCOCC1 | ? | >57
c1ccc(-c2nn3c(Cn4nnc5ccccc54)nnc3s2)cc1 | 2.5% | >57
COc1cccc(Nc2ncc3nc(-c4ccc(F)cc4)c(=O)n(C[C@H]4CCCO4)c3n2)c1 | ? | >11.4
O=C(c1ncn[nH]1)N1CCN(c2nc(-c3ccccc3)cs2)CC1 | -0.4% | >57
O=C(c1ccc2nc(-c3ccco3)c(-c3ccco3)nc2c1)N1CCC2(CC1)OCCO2 | ? | >57
Cc1nc2cnc(N(C)C)nc2n(-c2ccccc2)c1=O | -18.4% | >57
O=C(NCC1CCCO1)NC1(C(F)(F)F)Oc2ccccc2O1 (configuration not stated) | 20.6% | >57
O=C(Nc1ccc(Br)cc1)c1cnccn1 | -16.5% | .
CO[C@H]1C=CO[C@]2(C)Oc3c(C)c(O)c4c(O)c(c5c(c4c3C2=O)NC2(CCN(CC(C)C)CC2)N=5)=NC(=O)C(C)=CC=C[C@@H](C)[C@@H](O)[C@@H](C)[C@@H](O)[C@@H](C)[C@@H](OC(C)=O)[C@@H]1C | -4.4%[3.58 µM] | >57
O=C(O)c1ccc2cccc(Cl)c2c1O | ? | >57
CC(=O)Nc1ccc(S(=O)(=O)N2CCN(C(=O)N3CCCCCC3)CC2)cc1 | 3.9% | >57
C/C(=N\O)C(=O)NCc1ccccn1 | 12.4% | >57

Additional structures.
mol | LT uptake inh | Prx2 Sm inh
C=C(Cl)COc1ccc2c(C)cc(=O)oc2c1 | -22.2% | .
CCc1oc(C(=O)O)cc1COC | -4.8% | >57
O=C(CNC(=O)c1cnccn1)Nc1ccc(F)c(F)c1F | ? | >57
Cc1cc(=S)n(-c2ccccc2)n1C | -11.6% | .
Cc1ccc(-c2csc3ncn(/N=C/N(C)C)c(=O)c23)o1 | -20.3% | >57
COc1ccc(OC)c(NC(=O)CSc2nnc(-c3ccco3)n2-c2ccccc2)c1 | -15.6% | >57
O=C(c1cnn2c(C(F)(F)F)cc(-c3ccco3)nc12)N1CCc2ccccc2C1 | ? | >57
C=CCn1c(N2C(=O)CC(Cc3ccccc3)C2=O)nc2ccccc21 (configuration not stated) | -9.2% | >57
COC(=O)C/C=C\[C@@H](C)[C@@H](/C=N\O[C@@H](C)CN1CCCc2nc(C)c(C)cc21)OC | 2.9%[8 µM] | .
Cc1ccc(S(=O)(=O)N2CCN(C(=O)CCC(=O)NC3CCCc4ccccc43)CC2)cc1 (configuration not stated) | 11.1% | >57
CCOC(=O)CSc1nnc(Cn2c(=O)sc3ccccc32)n1C | 0.5% | >57
O=C(c1ccc2c(c1)OCO2)N1CCCc2ccccc21 | -9.2% | >57
CSc1nsc(SCC(=O)Nc2ccccn2)n1 | 34.9% | >57
Cc1ccc(C)n1-c1ccncc1 | -4.1% | >57
CCc1nc2ccccc2c(=O)n1-c1cccc(OC)c1 | 8.9% | >57

In the list so far, these contain a COOH group:
mol | LT uptake inh | Prx2 Sm inh
O=C(O)c1ccc2cccc(Cl)c2c1O | ? | >57
CCc1oc(C(=O)O)cc1COC | -4.8% | >57

Following part:
mol | LT uptake inh | Prx2 Sm inh
O=C1C(O)=C(O)C(=O)C(O)=C1O | 6.2%[3.58 µM] | >57
CCOC(=O)CSc1nnc(CNC(=O)c2cccc(C)c2)n1-c1ccccc1OC | 6.5% | >57
CCOC(=O)C1CCCN(C(=O)Cn2sc3nc(C)cc(C)c3c2=O)C1 (configuration not stated) | ? | .
O=C(Oc1ccc(N(Cc2cccs2)C2=NS(=O)(=O)c3ccccc32)cc1)c1ccco1 | ? | >57
CC12CCC(C(=O)N3CCCc4ccccc43)(CC1=O)C2(C)C (configuration not stated) | -3.3% | .
O=C(Nc1ccccc1C(F)(F)F)N1CCCC(O)C1 (configuration not stated) | 2.8% | >57
CCOC(=O)C1C(=O)NC(N2CCOCC2)=NC1c1ccco1 (configuration not stated) | . | >57
CC1(C)CC(=O)C=C(NCCN2CCN(C(=O)Nc3ccccc3)CC2)C1 | -15.0% | >57
COc1ccc(S(=O)(=O)n2nc(-c3cc(OC)c(OC)c(OC)c3)cc2N)cc1OC | 16.3% | >57
N#Cc1cccc(NC(=O)N2CC[C@@]3(CCCN(C(=O)c4ccncc4)C3)C2)c1 | -4.8% | >57
NCC(O)c1ccc(O)cc1 (configuration not stated) | -1.1% | .
O=C(NCc1cccs1)c1nn2cccnc2c1Cl | -5.0% | >57
CC(=O)c1ccc(NC(=O)C2CCC(C)(C(=O)O)C2(C)C)cc1 (configuration not stated) | 1.1% | .
COc1ccc(S(=O)(=O)N(Cc2ccccc2)Cc2nc3ccccc3c(=O)[nH]2)cc1 | -4.8% | >57
CCn1c(=O)cc(OCC(=O)N2CCc3ccccc32)c2ccccc21 | 4.7% | >57

New compounds follow.
mol | LT uptake inh | Prx2 Sm inh
COc1ccc(N(C(C)=O)C2C=CS(=O)(=O)C2)c(OC)c1 (configuration not stated) | -2.9% | >57
Cc1noc(C)c1C(=O)N1CCC2(CCCN(C(=O)Nc3ccccc3)C2)CC1 | -9.6% | >57
Clc1ccc(Cc2noc(-c3cccs3)n2)cc1 | -9.2% | >57
CCOC(=O)c1ccc(NC(=O)c2c(C)[nH]c(C(=O)OCC)c2C)cc1 | -8.7% | >57
COCCN1Cc2cccc(C(=O)Nc3ccc(S(=O)(=O)N4CCCCC4)cc3)c2C1=O | 11.0% | >57
O=C(CCCCCN1C(=O)C2C3C=CC(C3)C2C1=O)Nc1nccs1 (configuration not stated) | 12.0% | >57
CCN1CCCC1Cn1cnc2c([nH]c3ccc(Cl)cc32)c1=O (configuration not stated) | -16.4% | >57
COc1ccc(N2CCN(C(=O)CCCC3=NS(=O)(=O)c4ccccc4N3)CC2)cc1 | 5.0% | >57
CCC(Sc1nc(C)cc(C)n1)C(=O)O (configuration not stated) | 9.5% | .
OC(CN1C2=NCCCN2c2ccccc21)c1ccc(Cl)cc1 (configuration not stated) | ? | >57
COc1cccc(Cn2c(=O)c(-c3cn(C)c4ccccc34)nc3cncnc32)c1 | ? | >57
CC(=O)c1cc2c(=O)c3cc(C)ccc3oc2nc1C | 1.8% | >57
COc1ccc(OC)c(S(N)(=O)=O)c1 | 5.7% | >57
Cc1nc2cc(NC(=O)Nc3ccc(N4CCOCC4)cc3)ccc2n1C | 6.5% | >57
CCOC(=O)C(Cc1ccccc1)NC(=O)CNC(C)=O (configuration not stated) | -1.5% | >57

Further records follow.
mol | LT uptake inh | Prx2 Sm inh
C[C@H]1O[C@@H](O[C@H]2[C@@H](O)C[C@H](O[C@H]3[C@@H](O)C[C@H](O[C@H]4CC[C@@]5(C)[C@H](CC[C@@H]6[C@@H]5C[C@@H](O)[C@]5(C)[C@@H](C7=CC(=O)OC7)CC[C@]65O)C4)O[C@@H]3C)O[C@@H]2C)C[C@H](O)[C@@H]1O | ? | .
CCN(C(C)=O)c1nc(CSc2nnc(NC(C)C)s2)cs1 | ? | >57
COc1cc(OC)cc(-c2cc(NC(C)=O)n[nH]2)c1 | ? | >57
C=CCOC(=O)C1=C(C)N=C2SCCC(=O)N2C1c1cccs1 (configuration not stated) | . | >57
O=C(c1ccc(Br)o1)N1CCN=C1SCc1cccc(F)c1 | -13.2% | >57
O=C1CCc2cc(S(=O)(=O)N3CCN(Cc4ccc5c(c4)OCO5)CC3)ccc2N1 | -5.9% | >57
CC(C)CCN1CCNC(=O)C1CC(=O)Nc1ccc(F)cc1 (configuration not stated) | 1.5% | >57
CN(Cc1ccccc1)C(=O)CNC(=O)Cn1cnc2ccccc2c1=O | 2.5% | >57
COc1ccc(N2CCN(CCNC(=O)CCN3C(=O)COc4ccccc43)CC2)cc1 | ? | >57
CCOC(=O)C1CCN(C(=O)c2ccc(Cl)c(Cl)c2)CC1 | ? | >57
C=CCNC(=O)Nc1ccc2oc(C)nc2c1 | -0.4% | >57
CC(C)C[C@@H](CC(=O)N[C@@H](CCC(=O)O)CC(=O)O)NC(=O)[C@@H]1CNCC[C@H]1NC(=O)C[C@H](CCCN)NC(=O)C[C@H](Cc1c[nH]c2ccccc12)NC(=O)[C@@H]1CNCC[C@H]1N | -4.5% | >57
CN(C)c1nc(OCCOC(=O)COc2ccc(Cl)cc2Cl)nc(N(C)C)n1 | -3.1% | >57
O=C(C1CCCO1)N(c1cccc(Cl)c1)C1C=CS(=O)(=O)C1 (configuration not stated) | -2.7% | >57
CCOC(=O)n1c(=O)oc2cc(S(=O)(=O)N3CCCCC3)ccc21 | 20.4% | >57

Remaining list, next part.
mol | LT uptake inh | Prx2 Sm inh
O=C(CSc1ncn[nH]1)NCCOc1ccccc1 | 11.6% | >57
Clc1ccccc1-c1nc(-n2ccnc2)c2ccccc2n1 | ? | >57
ClCC(Cl)Cl | 4.8% | .
O=C(O)c1ccc(CSc2nc3ccccc3o2)cc1 | -9.1% | >57
CCn1c(=O)cc(OCC(=O)NCC2CCCO2)c2ccccc21 (configuration not stated) | 7.1% | >57
S=C(c1cccs1)N1CCCC1 | 5.6% | >57
COc1ccccc1OCC(=O)NCc1ccco1 | -11.4% | >57
Cc1ccccc1-c1cncnc1Nc1ccc(F)cc1 | -7.4% | >57
O=C1CC(c2ccc(F)cc2)Cc2nc(N3CCc4ccccc43)ncc21 (configuration not stated) | 28.0% | >57
O=C(CC1Sc2ncnn2C1=O)Nc1ccc(Br)cc1 (configuration not stated) | ? | >57
Cn1c(=O)cc(SCC(=O)N2CCN(C(=O)c3ccco3)CC2)c2ccccc21 | 3.9% | >57
Cc1cc(OCC(=O)N2CCOCC2)c(C(C)C)cc1Cl | 1.7% | >57
CN[C@@H]1[C@H](O[C@@H]2O[C@H](CO)[C@@H](N)[C@H](O)[C@@H]2O)O[C@H]2C[C@@H](N)[C@@H](O[C@H]3[C@@H](O)[C@H](O)[C@H](N)C[C@@H]3N)O[C@H]2[C@H]1O | 2.1%[3.58 µM] | >57
CCCCN(CC)CCCNC(=O)CC1Nc2ccccc2NC1=O (configuration not stated) | 2.2% | >57
CN1CCN(CCCNN)CC1 | -0.6%[8 µM] | >57

Ordered by molar mass (high to low): six of the compounds above
mol | LT uptake inh | Prx2 Sm inh
O=C1CC(c2ccc(F)cc2)Cc2nc(N3CCc4ccccc43)ncc21 (configuration not stated) | 28.0% | >57
Cc1cc(OCC(=O)N2CCOCC2)c(C(C)C)cc1Cl | 1.7% | >57
Clc1ccccc1-c1nc(-n2ccnc2)c2ccccc2n1 | ? | >57
O=C(O)c1ccc(CSc2nc3ccccc3o2)cc1 | -9.1% | >57
O=C(CSc1ncn[nH]1)NCCOc1ccccc1 | 11.6% | >57
COc1ccccc1OCC(=O)NCc1ccco1 | -11.4% | >57

Continuation:
mol | LT uptake inh | Prx2 Sm inh
O=C(COC(=O)C1CC(=O)N(Cc2ccccc2)C1)Nc1ccc2c(c1)OCO2 (configuration not stated) | -4.2% | >57
O=C(Nc1ccc(CN2CCOCC2)cc1)c1cc2ccccc2oc1=O | -0.9% | >57
CNC(=O)c1cc2c(=O)n3cccc(C)c3nc2n1C | -11.7% | >57
COc1ccc(-n2c(=O)c(C)nc3cnc(Oc4cccc(Cl)c4)nc32)cc1 | 3.6% | >57
CC1CN(C(=O)CSc2ncnc3sccc23)CC(C)O1 (configuration not stated) | -1.9% | >57
CC(=O)c1c(NCCc2ccccc2)cc(C)oc1=O | ? | >57
CCN(CC)CCCn1c(=S)[nH]c2ccc(Cl)cc2c1=O | -8.2% | >57
COCCn1c(=O)c(-c2ccc(OC)cc2)nc2cnc(Nc3cccc(OC)c3)nc21 | -3.9% | >57
Clc1ccccc1-c1ccc2ncnc(NC3CCNCC3)c2c1 | ? | >57
COc1ccccc1NC(=O)C(C)NS(=O)(=O)c1ccc(F)cc1 (configuration not stated) | ? | >57
CCn1c(CNc2nc(-c3ccccc3)cs2)nnc1SCC(=O)NCc1ccco1 | 17.0% | >57
C[C@]12CCC(=O)C=C1CCC1C2CC[C@@]2(C)C1CC[C@@]2(O)CC#N (some centres not stated) | -5.3% | >57
N[C@H](Cc1ccc(N(CCCl)CCCl)cc1)C(=O)O | 2.7% | >57
COc1ccc(CCNC(=O)c2cnccn2)cc1 | -8.7% | >57
Cc1ccc(-c2cc3c(nn2)-c2ccccc2C3=O)cc1 | -1.2% | .
O=C(O)CP(=O)(c1ccccc1)c1ccccc1 | -8.6% | .
Cc1ccsc1C1C2=C(CCCC2=O)Nc2ncnn21 (configuration not stated) | ? | >57
